Bioassay records from PubChem.
Integrin act MD: integrin-mediated muscular dystrophy alleviation activation. alpha7betagal myoblasts, beta-gal FDG fluorescence, 48 h. Potency, µM (top dose mostly 38.3 µM), for inactives: top-dose activation, most hits filed as activators. actives 0.064% (n = 350,000);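 note: potency is the fitted concentration of half-maximal effect; 100% = response of the positive control SU9516; nearly all actives have a fitted effect of over 60% in size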
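Alpha7betagal+/- myoblasts (passage 13) were plated 16-24 hr, then exposed to compounds (1:260 dilution of DMSO stock) for 48 hours at 37C. After MPER lysis, β-galactosidase reporter activity was read as FDG fluorescence (ex 480/em 540) after 30 minutes.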
A-T KAP1 phos: potential ataxia-telangiectasia treatment | […] A-T fibroblasts, KAP-1 phosphorylation AlphaLISA; neocarzinostatin DNA damage 30 min before lysis | Potency, µM (series often up to 57.5 µM), inactives show at the highest dose activation, hits mostly activators | actives 0.19% (n = 320,000); note: potency is the fitted concentration of half-maximal effect; % of control where 0% means no effect; nearly all actives have a fitted effect of over 45% in size
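ATM-like activity read as KAP-1 phosphorylation via AlphaLISA donor/acceptor antibody pairs after lysis and 6 hr at 25C. Cells were ATM-null patient fibroblasts ([…], hTERT), dosed 60 min, then exposed to the DSB inducer NCS for 30 min.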
Eya2 inh: blocks the phosphatase activity of human Eya2 | recombinant Eya2, OMFP fluorescence dephosphorylation (OMFP is methylfluorescein phosphate) | actives 0.006% (n = 330,000) | Potency, µM (top dose mostly 76.9 µM), for inactives: at the top dose activity, negative = inhibition, usual class: inhibitors; note: potency is the fitted concentration of half-maximal effect; % is set by controls: 0 for no effect and ±100 for the full control effect
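Eya2 protein (added as 0.2 uM solution) was preincubated with compound for 10 min at ambient temperature in 50 mM HEPES pH 7.5, 50 mM NaCl, 5 uM MgCl2, 0.05% BSA, 1 mM DTT. OMFP (added at 50 uM) then reacted 10 min; fluorescence read at 485/525 nm.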
PTAP TSG101 blk: blocks PTAP/TSG101 interaction to inhibit HIV-1 budding; Q99816; Fluorescence polarization, FITC-PTAP peptide / Tsg101 binding; Potency, µM (doses to about 115 µM), without a hit: at the highest dose activity change, negative = inhibition, usual class: inhibitors; 340,000 tested, under 10 active; active = well fitted inhibition curve with a large enough effect in the main read-out, with a control signal flat, not every such curve was filed as active; inconclusive = small, poorly fitted or top-dose-only effect, or effect the other way, or a change in a side signal; inactive = no such curve, though single readings can be large or run the other way; note: potency is the fitted concentration of half-maximal effect; % of control where 0% means no effect
Target sequence (Q99816 whole entry, looked up): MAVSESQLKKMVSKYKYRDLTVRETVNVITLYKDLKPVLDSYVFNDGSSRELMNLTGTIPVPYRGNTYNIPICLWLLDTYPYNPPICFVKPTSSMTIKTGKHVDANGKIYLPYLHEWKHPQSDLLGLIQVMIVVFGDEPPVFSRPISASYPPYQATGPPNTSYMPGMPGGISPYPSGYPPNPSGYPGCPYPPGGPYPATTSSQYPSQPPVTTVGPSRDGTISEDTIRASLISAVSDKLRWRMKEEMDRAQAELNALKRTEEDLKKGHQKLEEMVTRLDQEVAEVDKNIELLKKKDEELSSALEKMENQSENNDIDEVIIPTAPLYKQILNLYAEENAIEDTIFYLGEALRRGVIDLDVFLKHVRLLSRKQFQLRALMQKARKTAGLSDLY
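Steps: Tsg101 binding domain dispensed (10 uM final), compounds pinned in DMSO, FITC-labeled PTAP-motif peptide added (50 nM final); after 20 min binding at room temperature, polarization measured.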
Tb PFK inh: inhibitors of T. brucei phosphofructokinase. O15648. T. brucei PFK, ADP-Glo luminescence. Potency, µM (doses to about 57.5 µM), without a hit: top-dose activity, negative = inhibition, usual class: inhibitors. actives 0.17% (n = 330,000);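 note: potency is the fitted concentration of half-maximal effect; 0% = uninhibited 1x PFK enzyme wells and -100% = no-enzyme wells; nearly all actives have a fitted effect of over 60% in size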
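Luminescent ADP detection (ADP-Glo, two-step: ATP depletion then ADP-to-ATP conversion for luciferase) reported PFK activity after 45 min room-temperature reaction of 1.25 nM enzyme with 0.5 mM F6P and 0.1 mM ATP at pH 8.0.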
TCR act: activators of T cell receptors. Potency, µM (series often up to 9.22 µM), without a hit: at the top dose activation of IL-2 secretion, hits mostly activators. primary human leukocytes, anti-CD3, IL-2 HTRF, 48 h. 330,000 tested, under 10 active; note: % of control where 0% means no effect
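Readout: HTRF IL-2, Eu-cryptate/d2 antibody pair, 320nm excitation, 665nm emission. Stimulus: a-CD3 beads, no co-stimulation. Cells: primary human leukocytes. Exposure: 48 hr with compound.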
* = called active by the depositor; ? = inconclusive; / = not tested or not shown; & = joins results of further samples. Unless noted, calls come from the whole dose curve; as a rule, active = well fitted curve in the direction sought with a large enough effect; inconclusive = small, poorly fitted or top-dose-only effect, or another doubt; inactive = no such curve, though single readings can be large; an effect the other way counts as inactive or inconclusive.

SMILES | Integrin act MD | A-T KAP1 phos | Eya2 inh | PTAP TSG101 blk | Tb PFK inh | TCR act
O=C1NC[C@@H](c2ccccc2)OC(=O)[C@H](Cc2ccc(F)cc2)CC/C=C/C[C@H]1CC(=O)N(CCO)Cc1ccccc1 | -39% | 2% | 8% | / | -2% | 0%
O=C(O)Cn1nc(C(F)(F)F)c2c1CCCCC2 | -2% | 7% | 8% | -6% | -1% | /
O=C1NC[C@H](c2ccccc2)OC(=O)[C@@H](Cc2ccc(F)cc2)CC/C=C/C[C@H]1CC(=O)N(CCO)Cc1ccccc1 | -35% | 11% | -26% | 2% | -5% | -2%
O=C1NC[C@@H](c2ccccc2)OC(=O)[C@@H](Cc2ccc(F)cc2)CC/C=C/C[C@H]1CC(=O)N(CCO)Cc1ccccc1 | -41% | 4% | -20% | -4% | 6% | 0%
O=C1NC[C@@H](c2ccccc2)OC(=O)[C@@H](Cc2ccc(F)cc2)CC/C=C/C[C@@H]1CC(=O)N(CCO)Cc1ccccc1 | 0% | 1% | -24% | -6% | 6% | -3%
COc1cc(S(=O)(=O)n2c(C)nc3ccccc32)ccc1F | -10% | 2% | 12% | 0% | -4% | -3%
Cc1ccc2c(CC(=O)N3CCN(S(=O)(=O)c4ccc5c(c4)OCCO5)CC3)coc2c1 | -5% | 5% | 4% | -2% | 0% | -5%
CC1OC1P(=O)(O)O (centres undefined) | / | / | 4% | / | / | /
CCNC(=O)C1CC(=O)N(CC)C(=Nc2cc(Cl)c(O)c(Cl)c2)S1 (centres undefined) | -12% | -1% | 17% | -1% | -3% | -2%
O=C1NC[C@H](c2ccccc2)OC(=O)[C@H](Cc2ccc(F)cc2)CC/C=C/C[C@@H]1CC(=O)N(CCO)Cc1ccccc1 | -12% | 2% | 0% | -4% | -3% | 4%
CNC(=O)Oc1ccc2c(c1)[C@]1(C)CCN(C)[C@@H]1N2C | / | -6%&-4% | 4%&-1%&-3% | -1%&-3% | -1%&-3% | -8%&-2%
Cc1nc2ccccc2n1S(=O)(=O)c1ccc(F)cc1 | -4% | 15% | 6% | -6% | -1% | 2%

5 entries from above, arranged by their value in TCR act, rising.
structure	TCR act
Cc1ccc2c(CC(=O)N3CCN(S(=O)(=O)c4ccc5c(c4)OCCO5)CC3)coc2c1	-5%
COc1cc(S(=O)(=O)n2c(C)nc3ccccc32)ccc1F	-3%
CCNC(=O)C1CC(=O)N(CC)C(=Nc2cc(Cl)c(O)c(Cl)c2)S1 (centres undefined)	-2%
O=C1NC[C@@H](c2ccccc2)OC(=O)[C@H](Cc2ccc(F)cc2)CC/C=C/C[C@H]1CC(=O)N(CCO)Cc1ccccc1	0%
O=C1NC[C@H](c2ccccc2)OC(=O)[C@H](Cc2ccc(F)cc2)CC/C=C/C[C@@H]1CC(=O)N(CCO)Cc1ccccc1	4%

Shown with values under each structure: part of the list above.
Each structure is followed by: Integrin act MD, A-T KAP1 phos, Eya2 inh, PTAP TSG101 blk, Tb PFK inh, TCR act
O=C1NC[C@@H](c2ccccc2)OC(=O)[C@@H](Cc2ccc(F)cc2)CC/C=C/C[C@@H]1CC(=O)N(CCO)Cc1ccccc1
 : 0%, 1%, -24%, -6%, 6%, -3%
COc1cc(S(=O)(=O)n2c(C)nc3ccccc32)ccc1F
 : -10%, 2%, 12%, 0%, -4%, -3%
Cc1ccc2c(CC(=O)N3CCN(S(=O)(=O)c4ccc5c(c4)OCCO5)CC3)coc2c1
 : -5%, 5%, 4%, -2%, 0%, -5%
CC1OC1P(=O)(O)O (centres undefined)
 : /, /, 4%, /, /, /

Single values from the entries so far.
O=C1NC[C@H](c2ccccc2)OC(=O)[C@@H](Cc2ccc(F)cc2)CC/C=C/C[C@H]1CC(=O)N(CCO)Cc1ccccc1 in Integrin act MD shows -35%
COc1cc(S(=O)(=O)n2c(C)nc3ccccc32)ccc1F in Integrin act MD shows -10%
CCNC(=O)C1CC(=O)N(CC)C(=Nc2cc(Cl)c(O)c(Cl)c2)S1 (centres undefined) in TCR act shows -2%
O=C1NC[C@@H](c2ccccc2)OC(=O)[C@@H](Cc2ccc(F)cc2)CC/C=C/C[C@@H]1CC(=O)N(CCO)Cc1ccccc1 in A-T KAP1 phos shows 1%

Additional structures:
SMILES | Integrin act MD | A-T KAP1 phos | Eya2 inh | PTAP TSG101 blk | Tb PFK inh | TCR act
CC/C(=C(\c1ccccc1)c1ccc(OCCN(C)C)cc1)c1ccccc1 | / | -3%&0% | -18%&-3%&-36% | -1%&-1% | 0%&-6% | 10%&-2%
Cc1cc2nc(CSc3ccccc3)cc(=O)n2[nH]1 | 29% | 3% | 11% | 0% | 1% | 1%
O=C(CSc1ncnc2ccccc12)NCc1ccc2c(c1)OCO2 | 3% | -6% | -5% | -1% | 0% | 9%
Cc1nc(=O)c(-c2ccccc2)c(C)n1-c1ccc(O)c(C(=O)O)c1 | ? | 10% | 6% | -2% | -11% | -11%
CCC(C)(C)n1nnnc1CN1CCN(c2nc3cc(OC)ccc3cc2C#N)CC1 | -14% | 4% | 21% | 2% | -2% | -6%
CC(C(=O)O)c1cccc(C(=O)c2ccccc2)c1 (centres undefined) | / | -3% | 17%&-3%&-1% | -3% | 1%&2% | -9%
CCOC(=O)C1=C(COCCN)NC(C)=C(C(=O)OC)C1c1ccccc1Cl (centres undefined) | / | 3%&10% | -29%&-10% | -8%&-4%&1% | -6%&0% | 2%&-2%&2%

A portion of the library (hit frequency here may not be typical).
